Compound activity as filed in PubChem.
UCH37 inh: inhibitors of human UCH37 deubiquitinase, primary screen, biochemical, Ub-AMC cleavage, fluorescence; purified proteasome/UCH37; inhibition, % (test concentration not listed); 330,000 tested, 0.33% active; AID 588478, 2011;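 active = mean of two replicates above 20%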;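 note: 0% = compound-free wells with enzyme and 100% = wells lacking proteasome; stock transfer was 100 nL into about 20 µL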
Target sequence (Q9Y5K5 whole entry, looked up): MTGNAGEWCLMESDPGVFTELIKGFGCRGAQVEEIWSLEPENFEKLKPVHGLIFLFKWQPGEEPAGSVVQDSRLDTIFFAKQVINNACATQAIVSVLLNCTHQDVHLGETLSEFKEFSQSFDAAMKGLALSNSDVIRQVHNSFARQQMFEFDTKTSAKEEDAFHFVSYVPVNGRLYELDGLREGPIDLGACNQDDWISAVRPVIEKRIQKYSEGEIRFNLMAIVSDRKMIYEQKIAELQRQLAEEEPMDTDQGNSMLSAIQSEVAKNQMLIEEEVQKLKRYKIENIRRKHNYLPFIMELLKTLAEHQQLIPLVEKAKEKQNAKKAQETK
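assay system = human UCH37 enzyme supplied as purified proteasome complex | amount = proteasome at 0.15 nM in the dispensed enzyme solution | schedule = 30 min compound-proteasome preincubation then 25 min substrate reaction, room temperature | measured by = fluorescence, ex 355 nm, em 460 nm | benchmarks = no-proteasome wells (full inhibition) and compound-free wells (no inhibition)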
FGF22 binding: binders of human FGF22 protein, primary screen, FGF22 synaptogenesis inhibitor project, biophysical, thermal shift, single point | Fibroblast growth factor 22 (Homo sapiens), Q9HCT0 | calls only at 9.99 µM | recombinant FGF22 thermal shift, SYPRO orange fluorescence; percent of sucrose octasulfate shift, DMSO zero | 340,000 tested, 1.5% active;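 active = melting point raised past a set limit in the mean and every replicate; three in four hits are not shown here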
Target sequence (Q9HCT0 whole entry, looked up): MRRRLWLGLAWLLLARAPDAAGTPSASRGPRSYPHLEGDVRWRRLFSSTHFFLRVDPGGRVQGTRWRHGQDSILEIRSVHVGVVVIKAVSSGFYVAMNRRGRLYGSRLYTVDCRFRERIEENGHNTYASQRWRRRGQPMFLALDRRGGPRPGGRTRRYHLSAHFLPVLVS
E coli growth: E. coli growth inhibition, primary screen, OD600; OD600 absorbance (test concentration not listed); Escherichia coli growth, 23 h; stronger effect = lower value; AID 1053175, 2014; 330,000 tested, 0.21% active;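 active = OD600 absorbance below the run mean of sample wells minus 3.6 SD, in any replicate, cut at about 0.56 in these data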;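 note: stock transfer was 300 nL into about 60 µL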
ALR H2O2 inh: inhibitors of human ALR sulfhydryl oxidase, primary screen, biochemical, H2O2 detection, HRP-luminol luminescence, single point | purified ALR, DTT oxidation | inhibition, % (concentration not given with the values) | FAD-linked sulfhydryl oxidase ALR (Homo sapiens), P55789 | 290,000 tested, 3.8% active;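 active = mean and each replicate at 75% or more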;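 note: stock transfer was 7.5 nL into about 7.5 µL; 0% = neutral wells and 100% = wells with inactivated enzyme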
Target sequence (P55789 whole entry, looked up): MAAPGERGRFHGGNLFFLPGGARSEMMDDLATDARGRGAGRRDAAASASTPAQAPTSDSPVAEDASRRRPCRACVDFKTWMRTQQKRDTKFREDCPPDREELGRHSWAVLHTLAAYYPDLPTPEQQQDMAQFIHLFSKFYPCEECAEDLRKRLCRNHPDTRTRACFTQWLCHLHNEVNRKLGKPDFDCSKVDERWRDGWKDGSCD
LANA-H2A inh: blockers of LANA interaction with H2A/H2B – biochemical, FP readout, HTS, primary screen. 320,000 tested, 0.6% active. inhibition, % (no concentration beside the values). cell-free LANA-H2A/H2B peptide, fluorescence polarization. Protein LANA1 (Human herpesvirus 8 type P (isolate GK18)), Q9QR71; in the data active = inhibition mostly above about 10%, no sharp cut-off; inactive = mostly below about 6.7%;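 note: stock transfer was 7.5 nL into about 10 µL; 0% = median of vehicle wells and 100% = median of positive control wells; one replicate is shown; the record names a cut of 25% in any replicate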
HNF4A DNA FP: change in binding of human HNF4A to DNA, primary screen, biochemical, fluorescence polarization, FITC-DNA; 360,000 tested, 0.3% active; activity change, % at 10 µM; Hepatocyte nuclear factor 4-alpha (Homo sapiens), P41235; 1 h; AID 1224865, 2016; in the data active = activity change above about 30%, passing the limit was not always enough;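 note: controls were the assay level and a saturating level of protein; the project sought stronger binding though the title names inhibitors; some compounds called inactive have numbers as strong as hits; positive values seem to mean higher polarization but the record does not say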
Beta2AR agonist: beta2AR agonists driving receptor internalization, primary screen, cell-based, FAP fluorogen, flow cytometry. Am2.2-beta2AR cells; reference of the scale not given here. response, % (test concentration not listed). 340,000 tested, 0.43% active;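 active = response above a set limit, near 3 SD of response in nonfluorescent compounds, cut at about 42% in these data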;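 note: stock transfer was 100 nL into about 11 µL; a reference agonist was the positive control; negative values mostly stem from fluorescent compounds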
Numbers without * were called inactive; i = inactive; / = no result given; & = joins results of further samples.

SMILES	UCH37 inh	FGF22 binding	E coli growth	ALR H2O2 inh	LANA-H2A inh	HNF4A DNA FP	Beta2AR agonist
O=C(COc1ccc2c(c1)OCO2)Nc1ccc(Cl)cn1	4.9	i	0.74	-6	-5.3	0.3	-6
Cc1c(C(=O)N2CCOCC2)[nH]c2c1C(=O)CC(c1ccc(Cl)cc1)C2 (centres undefined)	2.9	/	0.77	-6	-3.4	-0.6	0
CCc1ccc(N(C(=O)c2csnn2)C(C(=O)NC2CCCC2)c2cccnc2)cc1 (centres undefined)	0.1	i	0.68	-1	1.6	4.3	16
Cc1nc2ccc(NC(=O)c3ccco3)cc2s1	-0.3	i	0.66	/	-4.6	1.0	-18
CC1CCCC(C)N1C(=O)COC(=O)c1cc(Br)ccc1Cl (centres undefined)	3.0	i	0.67	-8	-3.6	4.2	-9
Cc1c(C)n(CCC#N)c2ccc(Cl)cc12	1.6	/	0.66	-2	-1.0	1.6	-1
Cc1ccc(SC/C(O)=C(\C#N)c2nc3ccccc3s2)cc1	/	/	/	72	-3.9	0.1	6
COc1cc(NC(=O)c2ccc(Cl)cc2)c2ncccc2c1	-149	i	0.71	-4	-2.1	4.5	4
CC(=O)c1ccccc1NC(=O)C1CC(=O)N(c2ccc3c(c2)OCCO3)C1 (centres undefined)	-2.3	i	0.69	-19	4.0	-0.5	-2
COc1ccc(/C=C/c2cc(C(=O)O)c3ccccc3n2)cc1	-163	i	0.66	-5	0.4	1.3	3
O=C(N/N=C/c1ccc(OC(=O)c2ccccc2Cl)cc1)c1ccc(O)cc1	/	i	/	56	1.9	3.3	39
COc1ccccc1CNC(=O)C1CC(c2cccc([N+](=O)[O-])c2)=NO1 (centres undefined)	0.9	i	0.7	-6	-7.1	2.0	-13
CCc1nnc(NC(=O)CCNC(=O)c2ccco2)s1	0.0	i	0.68	/	-4.5	-1.8	-4
Cc1nonc1C1CCCN1Cc1cn[nH]c1-c1ccc(-c2ccccc2)cc1 (centres undefined)	/	i	/	-8	-2.7	-1.8	-1
COc1ccc(C)cc1NC(=O)COC(=O)c1ccc(OCc2ccc(Cl)cc2Cl)c(OC)c1	2.2	i	0.73	-30	4.2	2.2	5
CCCOc1cc(C)c(S(=O)(=O)N2CCN(C)CC2)cc1C	0.9	/	0.74	-1	10	-0.1	1
Cn1c(-c2ccc(F)cc2)cnc1NCc1cc2c(cc1[N+](=O)[O-])OCO2	5.3	/	0.62	93*	-8.6	-1.1	-3
Cc1cc(C)c(S(=O)(=O)c2cccc(Cl)c2)c(=O)[nH]1	-6.2	i	0.64	-1	-2.9	-3.2	-2
CC1(C)SC(=S)N(/N=C/c2ccc(O)cc2)C1N(O)C(=O)Nc1ccc([N+](=O)[O-])cc1 (centres undefined)	/	/	/	81*	-1.2	-6.3	10
COc1ccc(OC)c(NC(=O)c2oc3ccccc3c2NC(=O)C2CC2)c1	-115	i	0.7	1	-1.6	-1.4	4
Cc1cc(C(=O)CSc2cccc[n+]2[O-])c(C)n1-c1ccccc1	0.8	i	0.69	-15	-1.4	-1.9	-15
COc1cc(C(=O)Nc2ccc(C(N)=O)cc2)c([N+](=O)[O-])cc1OC	5.0	i	0.67	-33	-1.2	-4.5	3
COc1cccc(NC(=O)c2cccc(C(=O)Nc3cccc(OC)c3)c2)c1	-11	i	0.67	0	0.0	1.3	5
COc1ccc(CC(NC(C)=O)C(=O)NC2CCN(C(=O)C3CCCCC3)CC2)c(OC)c1 (centres undefined)	1.9	i	0.65	-19	1.1	1.5	0
O=S(=O)(Nc1cccc2c1CCCC2)c1ccc(Cl)cc1	2.2	/	0.61	84*	-0.6	1.4	8

Brought forward from above: 5 compounds, followed by the next part.
SMILES	UCH37 inh	FGF22 binding	E coli growth	ALR H2O2 inh	LANA-H2A inh	HNF4A DNA FP	Beta2AR agonist
Cc1cc(C(=O)CSc2cccc[n+]2[O-])c(C)n1-c1ccccc1	0.8	i	0.69	-15	-1.4	-1.9	-15
COc1cc(C(=O)Nc2ccc(C(N)=O)cc2)c([N+](=O)[O-])cc1OC	5.0	i	0.67	-33	-1.2	-4.5	3
COc1cccc(NC(=O)c2cccc(C(=O)Nc3cccc(OC)c3)c2)c1	-11	i	0.67	0	0.0	1.3	5
COc1ccc(CC(NC(C)=O)C(=O)NC2CCN(C(=O)C3CCCCC3)CC2)c(OC)c1 (centres undefined)	1.9	i	0.65	-19	1.1	1.5	0
O=S(=O)(Nc1cccc2c1CCCC2)c1ccc(Cl)cc1	2.2	/	0.61	84*	-0.6	1.4	8
O=S(=O)(c1ccccc1)c1nc(Cc2ccccc2)oc1N1CCOCC1	0.8	i	0.64	/	0.5	4.2	6
CC1(C)CC(=O)C2=C(C1)OC1=C(C(=O)CC(C)(C)C1)C2c1ccc(O)cc1O	-1.3	/	0.71	34	-5.4	-0.7	93*
c1ccc(C2c3[nH]c4ccccc4c3CCN2Cc2cccn2-c2ccccn2)nc1 (centres undefined)	-1.5	i	0.72	-4	-1.2	-3.5	2
CC(=O)Nc1cccc(NC(=O)C(C)N2c3cccc4cccc(c34)S2(=O)=O)c1 (centres undefined)	-43	i	0.65	-60	-3.9	2.7	-4
COc1ccc(NC(=S)Nn2cnnc2)c(OC)c1	/	i	/	0	-1.4	-2.0	5
CCOc1cc(/C=C2/C(=N)N3C(=NC2=O)SN=C3S(C)(=O)=O)ccc1OS(=O)(=O)c1ccccc1	7.2	/	0.68	95*	-3.7	7.3	9
O=C(COC(=O)c1cccs1)Nc1cccc(Cl)c1	3.2	i	0.64	/	/	1.1	0
N#Cc1ccccc1CSc1nc2ncc(Br)cc2[nH]1	4.0	i	0.64	-11	-5.3	0.1&1.9	0
O=C(O)CN1CCN(CC(=O)O)CCN(CC(=O)O)CCN(CC(=O)O)CC1	4.0	i	0.66	0	5.5	0.0	-7
Cc1ccc(NC(=S)/C(=C(\[O-])c2ccc(Cl)s2)[n+]2cccc(CO)c2)cc1C	4.7	i	0.71	39	7.1	4.9	4
O=C(COC(=O)c1ccc(S(=O)(=O)NCc2ccco2)cc1)NC1CCCCCC1	3.3	/	0.73	29	2.2	1.9	4
O=C(CO/N=C\c1ccccc1)Nc1ccccc1C(=O)N1CCOCC1	/	/	/	-4	7.3	5.2	-6
O=S(=O)(NCCc1csc(-c2cccnc2)n1)c1ccc2c(c1)OCCO2	2.5	i	0.73	-2	7.2	2.7	-11
O=[N+]([O-])C(/C=C(\Cl)[N+](=O)[O-])=C1N(Cc2ccc(Cl)nc2)CCN1Cc1ccc(Cl)nc1	3.7	/	0.65	-25	3.3	0.2	13
O=C(c1cc(=O)c2ccccc2o1)N1CCN(c2ccccc2)CC1	0.3	/	0.7	35	2.6	1.9	-5
CCOC(=O)C1CCN(C(=O)c2cc3c(=O)n4ccccc4nc3n2C)CC1	i	i	0.69	-2	5.3	-1.9	-2
Cc1cc(C(=O)N2CCCc3ccccc32)ccc1[N+](=O)[O-]	1.2	i	0.71	12	-0.3	2.2	-2
O=C(Nc1cccc(Cl)c1Cl)C1CCN(c2ncccn2)CC1	0.8	/	0.73	-3	-0.2	-0.7	-3
COc1ccc(/C=N/NC(=O)c2cc(C)oc2C)cc1OCc1ccccc1	/	i	/	-2	2.5	-1.9	7
COc1ccc(-n2c(SCC(=O)N/N=C(\C)c3cccnc3)nc3ccccc3c2=O)cc1	/	i	/	-10	2.6	2.7	7
Cc1ccc(N(CC(=O)NCc2ccc3c(c2)OCO3)S(=O)(=O)c2c(C)noc2C)cc1	3.3	i	0.72	97*	0.0	-1.8	-10
COc1ccc(C(=O)C2CCCN(Cc3nc4ccccc4nc3C)C2)cc1OC (centres undefined)	0.3	i	0.62	-1	0.9	1.4	-9
O=[N+]([O-])c1ccc(COc2ccc(CN3CCCCC3)cc2)cc1	/	i	/	/	/	-1.9	8
O=C(Nc1cc(Br)c(O)c(Br)c1)c1cccc(NC(=O)c2ccco2)c1	6.2	i	0.66	98*	3.4	3.2	-1
CC(CO)NS(=O)(=O)c1ccc(Br)cc1F (centres undefined)	/	i	/	/	/	0.8	2

Remaining list, next part:
SMILES	UCH37 inh	FGF22 binding	E coli growth	ALR H2O2 inh	LANA-H2A inh	HNF4A DNA FP	Beta2AR agonist
CCCc1nnc(NC(=O)CNc2ccc(F)cc2)s1	1.4	/	0.67	1	2.5	1.0	-6
CCS(=O)(=O)c1ncc(CO)n1CCc1ccccc1	2.7	i	0.64	4	9.3	4.5	-1
O=S(=O)(c1ccccc1F)N1CCN(Cc2cc3c(cc2Br)OCCO3)CC1	3.8	i	0.66	/	-0.8	0.9	1
COCCN(C(=O)COC(=O)COc1ccc2ccccc2c1)c1c(N)n(Cc2ccccc2)c(=O)[nH]c1=O	2.1	i	0.71	/	/	2.2	-9
Cc1ccc2c(CC(=O)N3CCN(c4ccccc4)CC3)coc2c1	0.9	i	0.67	/	-2.2	2.2	0
O=C(CBr)Nc1c2c(nn1-c1ccccc1)CSC2	/	i	/	-2	-1.0	1.6	-3
CC1(C)C(=O)OC(C(=O)c2ccccc2)C(C)(C)C1=O (centres undefined)	5.0	/	0.66	-7	3.0	2.2	5
c1ccc(CNc2nc(CN3CCOCC3)nc3scc(-c4ccccc4)c23)cc1	5.8	/	0.66	26	-8.0	1.2	-10
N#Cc1nc(-c2ccc(OCc3ccc(Cl)cc3)cc2)oc1N1CCC(C(N)=O)CC1	-2.4	i	0.73	/	0.8	-2.1	9
OCC1(Cc2ccccc2Cl)CCN(C/C=C/c2ccccc2)CC1	1.8	i	0.65	-4	-0.6	-0.2	-2
CCOC(=O)N1CCN(C(=S)NC(=O)c2cncc(Br)c2)CC1	4.3	/	0.66	-4	23	0.5	1
COc1cc2cc(C(=O)N3CCc4ccccc4C3)[nH]c2cc1OC	-9.5	i	0.7	-5	-0.1	1.8	6
CC(C)c1nnc(NC(=O)c2cccnc2)s1	1.5	/	0.71	4	2.9	3.0	4
C=CCNc1cc(F)ccc1S(=O)(=O)NCC=C	-1.7	i	0.68	/	/	-3.6	3
CCOc1ccc(-c2n[nH]c(C)c2-c2ccccn2)c(O)c1	1.5	i	0.67	/	4.6	3.8	-14
COc1nc(N2CCCCCC2)nc(N2CCCCCC2)n1	2.9	/	0.7	7	-1.8	1.6	15
COc1cccc2sc(=NC(=O)CS(=O)(=O)c3ccc(F)cc3)n(C)c12	0.4	i	0.69	-4	-3.7	-2.0	1
CC(=O)Oc1ccc(N2C(=O)CC(N3CCOCC3)C2=O)cc1 (centres undefined)	0.6	/	0.74	-7	0.2	-0.5	-3
COc1ccc(N2CCN(c3nc4ccc(C)cn4c(=O)c3C=O)CC2)cc1	0.8	i	0.65	81*	-0.5	0.0	-4
O=C(N/N=C/c1ccc2c(c1)OCO2)c1ccc(COc2cccc3cccnc23)cc1	/	i	/	-5	-1.2	5.2	19
CC(=O)Nc1ccc(NC(=O)CSc2nnc(C3CC3)n2-c2ccccc2)cc1	4.6	i	0.69	/	-4.0	3.2	3
CCCCn1c(N)c(N(CCOC)C(=O)c2cccc(S(=O)(=O)N(C)c3ccccc3)c2)c(=O)[nH]c1=O	-2.0	i	0.68	-2	-1.0	0.9	9
COC(=O)CS(=O)(=O)c1cc([N+](=O)[O-])ccc1NC(=O)OC	5.1	i	0.65	-16	-3.8	-1.4	9
CN(c1ccc(F)cc1)S(=O)(=O)c1ccc(Cl)c(C(=O)NC2(C)CCS(=O)(=O)C2)c1 (centres undefined)	2.6	i	0.67	/	2.7	2.1	3
O=C(CCCO)CCCCCCCCC[C@H]1N[C@H](CO)[C@@H](O)[C@@H]1O	5.8	i	/	-22	0.9	-1.2	-3
Cc1nnc(SCc2ccc(F)cc2Cl)s1	1.0	/	0.62	-19	-2.7	-2.3	1

These rows are one share of the data; count on the stated rates, not on these rows.
